High-throughput results deposited in PubChem by National Center for Advancing Translational Sciences (NCATS).
Anthrax LT inh – anthrax lethal toxin internalization inhibition; Cells, anthrax lethal toxin internalization, FRET ratio (460/530); Potency, µM (highest dose often 40 µM), without a hit: at the top dose activity change, negative = inhibition, actives largely listed as inhibitors; actives 0.67% (n = 70,000); AID 912; active = well fitted falling ratio curve with the 530 nm signal flat; inconclusive = other ratio curves, or a change in one channel alone; inactive = flat curves in the ratio and both channels; the % refers to the ratio; note: % is set by controls: 0 for no effect and ±100 for the full control effect; nearly all actives have a fitted effect of over 50% in size; tested in ME-180 cells; beta-lactamase reporter
SmPrx2 inh – Schistosoma mansoni Prx2 inhibition. S. mansoni Prx2 activity coupled to TGR/GSH (TGR is thioredoxin glutathione reductase), NADPH fluorescence loss, qHTS; some inactives read as strong as hits. actives 0.07% (n = 65,000). Potency, µM; active means full or partial inhibition curve with a strong effect at the top dose; inconclusive means weaker partial or single-point curve; inactive means no accepted curve; note: series up to 57 µM; many of its hits are not listed in these tables
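Prx2 inhibition was measured as reduced NADPH consumption when electrons flowed from NADPH through TGR and glutathione to Prx2 and H2O2. Plates were read kinetically over 8 min; enzyme reagents were held at 4 deg C during dispensing.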
* hit, by the source's call; ? = inconclusive; nt = no result given; & = joins results of further samples; [ ] = another dose, or the depositor's remark. Potency is the fitted concentration of half-maximal effect. Not all compounds are listed, so the mix of outcomes need not match the whole.

Order of values: Anthrax LT inh, SmPrx2 inh
Cc1ccc(NC(=O)c2cccc(N(C)C)c2)cc1NC(=O)c1ccc(O)cc1
    ?, >57
Cc1cc(-n2c(C)cc(C(=O)CSc3nc4ccccc4c(=O)n3Cc3ccco3)c2C)no1
    ?, >57
CCOc1ccccc1NC(=O)CCC(=O)Nc1ccc2nc(N3CCN(C)CC3)cc(C)c2c1
    12.6µM*, >57
O=C(CSc1nnnn1C1CC2CCC1C2)Nc1ccnc2ccccc12 (configuration not stated)
    ?, >57
CC(C)S
    7.2%, nt
COc1ccc(Cn2nnnc2C(c2cc3cc(C)cc(C)c3[nH]c2=O)N2CCOCC2)cc1 (configuration not stated)
    -12.5%, >57
COc1ccc(C(=O)N2CCC(C(=O)Nc3ccc(OC)c(OC)c3)CC2)cc1
    -8.2%, nt
Cc1ccc(NC(=O)CSc2nnc(-c3ccncc3)n2N)cc1C
    ?, >57
O=C(NCCOc1ccccc1)c1n[nH]c(=O)c2ccccc12
    -12.2%, >57
c1ccc(-c2nnc(CSc3nnc(-c4ccncc4)n3Cc3ccco3)o2)cc1
    2.3%, >57
O=C(CSc1nnc2ccccn12)c1ccccc1
    -5.8%, >57
N#Cc1c(-c2ccccc2)nc(N2CCCCCC2)[nH]c1=O
    7.0%, >57
CN(Cc1ccccc1)C(=O)c1cccc(NC(=O)c2ccco2)c1
    -2.5%, >57
Cc1cc(C)cc(NC(=O)NCc2nnc(SCc3ccccc3)n2C)c1
    -22.8%, >57
COC(=O)N1CCC2(CC1)CCN(c1ccccn1)CC2
    14.1%, >57
O=C(Cn1nc(C(F)(F)F)c2c1CCCC2)NCCN1CCOCC1
    -10.6%, >57
CN(C)CC(CN(C)C)c1ccccn1
    -2.1%[8 µM], >57
O=C(c1cc2ccccc2oc1=O)N(Cc1ccc2c(c1)OCO2)Cc1ccco1
    -18.4%, >57
CCc1nc(N)nc2c1C(=O)CC(C)(C)C2
    -13.3%, nt
Cc1c(C(=O)NN2CCOCC2)nn(-c2ccc(Cl)cc2Cl)c1-c1ccc(I)cc1
    ?, >57
CS(=O)(=O)N1CCC(C(=O)NCc2ccco2)CC1
    -1.2%, >57
N#Cc1ccc(Oc2ccc(C(N)=O)cc2)cc1C#N
    6.2%, >57
COCCn1c(=O)c(C)nc2cnc(OC)nc21
    1.7%, >57
CCCCCCOC(=O)C(C#N)c1nc2ccccc2nc1N1CCCCC1 (configuration not stated)
    2.2%, >57
CS(=O)(=O)N(CC(=O)N1CCCCC1)C1CCCCC1
    6.0%, >57
CCCn1c(=NC(=O)c2ccncc2)c(C(=O)OCC)cc2c(=O)n3cccc(C)c3nc21
    -1.6%, >57
O=C(NCc1cccs1)c1cnn2cccnc12
    -0.2%, >57
O=C(Nc1nccs1)C1C2/C=C\CCCCC21 (configuration not stated)
    -10.2%, >57
O=C(NCCc1cccc(F)c1)[C@@H]1CSC2c3ccccc3C(=O)N21 (some centres not stated)
    0.5%, >57
OCC1(CO)COC2(CCCC2)N1
    -18.1%, >57

Record cards (already shown):
Profile of CN(C)CC(CN(C)C)c1ccccn1 → Anthrax LT inh = -2.1%[8 µM]; SmPrx2 inh = >57
Profile of CCc1nc(N)nc2c1C(=O)CC(C)(C)C2 → Anthrax LT inh = -13.3%; SmPrx2 inh = nt
Profile of O=C(NCc1cccs1)c1cnn2cccnc12 → Anthrax LT inh = -0.2%; SmPrx2 inh = >57

More compounds:
Order of values: Anthrax LT inh, SmPrx2 inh
C=CCn1c(SCC(=O)c2ccccc2)nnc1-c1cc2ccccc2o1
    -19.9%, >57
N[C@H](Cn1oc(=O)[nH]c1=O)C(=O)O
    4.3%, >57
CCOC(=O)C(CCOc1cccc(CC)c1)C(=O)OCC
    -23.2%, >57
CNc1oc(Cc2ccccc2)nc1S(=O)(=O)c1ccccc1
    nt, >57
COCC(=O)Nc1ccccc1C(=O)NC(C)C
    14.9%, >57
CC(C)CNC(=O)O
    ?, >57
COC(=O)C1=C(N)Oc2cc(C)oc(=O)c2C1c1cccnc1 (configuration not stated)
    nt, >57
O=C1CC(N2CCN(c3cccc(C(F)(F)F)c3)CC2)C(=O)N1c1ccccc1F (configuration not stated)
    -26.8%, >57
CCCS(=O)(=O)N1CCN(S(=O)(=O)c2ccc(F)cc2)CC1
    -0.6%, >57
C=C(C)c1cccc(C(C)(C)NC(=O)Nc2ccc3[nH]c(=O)[nH]c3c2)c1
    -3.6%, >57
CCCCCCc1nc2ccccc2c(=O)n1N
    -13.7%, >57
Cc1ccc(-n2c(=O)[nH]cc(C(=O)N3CCc4ccccc43)c2=O)cc1
    12.6%, >57
Cc1nc(=O)c(-c2ccccc2)c(C)n1-c1ccccc1O
    10.6%, >57
Nc1nc2n(n1)C(c1ccco1)CC(c1ccc(Cl)cc1Cl)N2 (configuration not stated)
    -3.1%, >57
CC1=Nn2c(nnc2-c2ccccc2F)SC1
    ?, >57
CC(C)OP(C)(=O)CN1CCN(CP(C)(=O)OC(C)C)CC1 (configuration not stated)
    -1.5%, >57
O=C(OCc1ccc(F)cc1Cl)c1ccccn1
    -19.4%, >57
Cc1ccc(F)cc1NC(=O)c1c(-c2ccccc2)noc1C
    -17.7%, >57
Cc1ccc(-n2c(=O)cc(N3CCCCCC3)[nH]c2=O)cc1
    -19.3%, >57
COc1nc(-c2ccccc2)ccc1-c1noc(-c2ccccc2F)n1
    -2.0%, >57
COc1ccc([C@@H]2CC(=O)c3c(O)cc(O[C@@H]4O[C@@H](CO[C@@H]5O[C@@H](C)[C@@H](O)[C@@H](O)[C@H]5O)[C@@H](O)[C@@H](O)[C@H]4O)cc3O2)cc1O
    ?, >57
CCSc1nnc(-c2ccc(S(=O)(=O)N3CCOCC3)cc2)n1CC1CCCO1 (configuration not stated)
    3.6%, >57
CCOC(=O)Nc1ccc(NC(=O)c2c(OC)cccc2OC)cc1
    -6.9%, >57
COC(=O)C1C(=O)c2c([nH]c(C(=O)OCCSC)c2C)CC1C (configuration not stated)
    -9.2%, >57
C=CCOc1cccc(C2/C(=C(/O)c3ccccc3)C(=O)C(=O)N2CCN2CCOCC2)c1 (configuration not stated)
    nt, >57
O=C(c1ccco1)N1CCN(S(=O)(=O)c2ccc(F)cc2)CC1
    19.6%, >57
C=CCc1cccc(/C=N/c2ncccc2O)c1O
    1.7%, >57
CCOc1ccc(-n2c(SCC(=O)NCc3ccco3)nc3c(c2=O)SCC3)cc1
    -2.3%, >57
Cc1sc2ncnc(SCc3ccco3)c2c1C
    2.7%, >57
C1=Nc2c(NCc3ccccc3)ncnc2Oc2ccccc21
    -5.2%, >57

Remaining list, next part
molecule | Anthrax LT inh | SmPrx2 inh
COC(=O)C1CCN(c2nc3ccccc3nc2C(C#N)C(=O)OCC(C)C)CC1 (configuration not stated) | 16.3% | >57
CCn1c(SCC(=O)Nc2cc(OC)c(OC)c(OC)c2)nnc1-c1cccs1 | 7.6% | >57
O=C(NCc1cccs1)c1ccc2c(c1)OCCO2 | ? | >57
COCCNC(=O)CN(Cc1ccc2c(c1)OCO2)C(=O)CCC(=O)Nc1nccs1 | -6.8% | >57
c1ccc2oc(NC3=NCN(CC4CCCO4)CN3)nc2c1 (configuration not stated) | ? | >57
CCOC(=O)c1cc(-c2ccc(F)cc2)n(CC(=O)N2CCCC2)c1C | -0.2% | >57
CCC(C(=O)OC)n1cnc2c(nnn2-c2ccc(OC)cc2)c1=O (configuration not stated) | 9.9% | >57
CCc1nn2cc(-c3ccccc3)nc2s1 | 8.6% | >57
Cc1cccc(NC(=O)CCN2CC(C)OC(C)C2)c1 (configuration not stated) | -5.6% | >57
CCOC(=O)c1cccc(NC(=O)CCc2nc(-c3ccc(C)cc3)no2)c1 | -23.8% | >57
O=C(O)C1=C/C(=C(/c2ccccc2)c2cc(C(=O)O)c(O)c3ccccc23)c2ccccc2C1=O | -9.0%&-4.6%[8 µM] | >57&>57
C[C@@H](C(=O)Nc1ccc2ccccc2c1)[C@H]1C[C@]1(C)[C@H](NC(=O)Oc1ccc(F)cc1)c1ccccc1 | -28.2% | >57
COc1ccc(NC(=O)CCS(=O)(=O)c2ccc(OC)cc2)cc1 | 21.9% | >57
Cc1nnc(NC(=O)CSc2nnc(-c3ccoc3C)n2CC(C)C)s1 | -2.0% | >57
CCn1c(=O)cc(OCC(=O)NC2CCCCC2)c2ccccc21 | -3.7% | >57
Cc1cc(C)n(-c2ccc(N3CCOCC3)nn2)n1 | ? | >57
CCCCSc1nnc(C)c(=O)[nH]1 | 10.3% | >57
O=C(Oc1ccc(Cl)cc1N1C(=O)CCC1=O)c1ccco1 | 1.8% | >57
C=C[C@H](N)CCC(=O)O | -10.4% | >57&>57&>57
COc1ccc(S(=O)(=O)N2CCN(C(=O)c3cccc(Cl)c3)CC2)cc1 | ? | >57
CCOc1c(OC)cccc1C1CC(=O)Nc2cc(OC)c(OC)cc21 (configuration not stated) | 8.2% | >57
N#Cc1cccc(-c2nc(NCc3cccnc3)c3ccccc3n2)c1 | ? | >57
N=C(N)SCCCN | 1.9%[8 µM] | >57
CN=c1sc(C(=O)Nc2cccc(Cl)c2)cc(=O)n1C | 2.8% | >57
O=C(Nc1cccc(C(=O)N2CCCCCC2)c1)c1ccco1 | 1.3% | >57
Cc1nn(Cc2ccccc2Cl)c(C)c1C(=O)N1CCN(c2ccccc2)CC1 | -7.6% | >57
COc1cc2ccccc2cc1C(=O)Nc1ccc(S(=O)(=O)Nc2cc(C)on2)cc1 | 12.4% | >57
c1ccc2ncc(-n3cnnn3)cc2c1 | -5.3% | >57
C=C1CC[C@@H]2O[C@]2(C)CC[C@@H]2[C@H]1CC2(C)C | ? | >57
Cc1cc(C)nc(SCC(=O)NCc2ccco2)n1 | -8.9% | >57
COc1ccc2c(c1)c(CC(=O)N1CCOCC1)c(C)n2C(=O)c1ccc(Cl)cc1 | -14.8%&3.5% | >57&>57
O=C(c1ccco1)N1CCC[C@@]2(CCN(Cc3ccncc3)C2)C1 | 3.6% | >57
COc1ccc(Cc2nnc(SCC(=O)c3ccc(OC)cc3)o2)cc1 | -1.9% | >57
CCOC(=O)c1c(C)[nH]c(C=Nc2ccccc2)c1O | -14.6% | >57
Cc1nnc(SC(C)C(=O)Nc2ccc(S(=O)(=O)N3CCCCCC3)cc2)s1 (configuration not stated) | -21.7% | >57
O=C(CSc1nc(-c2ccccc2)cs1)Nc1nccs1 | 1.9% | >57
CC1=C2C(CCS2(=O)=O)CC2(C1)C(=O)OC(C)(C)OC2=O (configuration not stated) | nt | >57
C=CCN1C(=O)CN=C1Nc1cccc(C)c1 | 3.7% | >57
CCN(Cc1ccncc1)C(=O)c1cccc(S(=O)(=O)N2CCOCC2)c1 | 2.7% | >57
COc1ccc(N2CCC(CNS(=O)(=O)c3cccc(C(F)(F)F)c3)C2)cc1 (configuration not stated) | -18.3% | nt
COc1nc(Nc2ccc(OC)c(Cl)c2)nc(OC)n1 | 3.5% | >57
Cc1cc(Nc2ccc(Cl)cc2)n2nnnc2n1 | 6.5% | >57
O=C(c1ccc(S(=O)(=O)N2CCCCC2)cc1)N1CCN=C1SCc1cccnc1 | -7.4% | >57
O=C(OCC(=O)N1CCN(C(=O)c2ccco2)CC1)c1ccccc1OCc1ccc(Cl)cc1 | -2.4% | >57
CC1CCC(C(=O)O)NC1c1ccc(-c2ccco2)cc1 (configuration not stated) | -4.2%[8 µM] | nt
CCOC(=O)CNC(=O)c1c(C)nn(-c2ccccc2)c1Cl | -0.1% | >57
Cc1ccc(-n2c3c(cc(C(=O)NC4CCSC4=O)c2=O)C(=O)CCC3)cc1 (configuration not stated) | 11.5% | >57
CCS(=O)(=O)N1CCN(Cc2ccccc2OC)CC1 | -4.4% | >57
Cc1cccc(N2CCN(C(=O)C3CCN(S(=O)(=O)c4cnc[nH]4)CC3)CC2)c1C | 7.5% | >57
CC1CN(Cc2ccc(C#N)cc2Cl)CC(C)O1 (configuration not stated) | -6.6% | >57
O=C(CCSCCC(=O)NCc1cccs1)NCc1cccs1 | 5.1% | >57
CC(=O)CCc1c(C)c2cc(C)ccc2[nH]c1=O | -1.3% | >57
CCn1c(SC(=O)NC2CCCCC2)nnc1-c1cccs1 | -16.6% | >57
COc1cc2nc(SCc3c(C)noc3C)n(CCC3=CCCCC3)c(=O)c2cc1OC | -13.5% | >57
CN(C)Cc1ccccc1-c1nccc(N(C)C)n1 | ? | >57
CC(C)(Cl)Cl | -3.7% | nt
CCOC(=O)CN1C(=O)c2ccccc2C1=O | -12.1% | >57
COc1ccc(NC(=O)N2CCCCC2)cc1 | nt | >57
CCCC(OC(=O)CC1Sc2ccccc2NC1=O)C(=O)NCc1ccco1 (configuration not stated) | -8.4% | >57
CCC(C)[C@H](NC(=O)NCc1ccc(Cl)cc1)C(=O)OC (some centres not stated) | 0.8% | >57
CC(C(=O)Nc1ccc2c(c1)OCO2)N(c1ccc(Cl)cc1)S(C)(=O)=O (configuration not stated) | -1.7% | >57
COc1ccccc1N1CCN(C(=O)CCc2ccc(S(=O)(=O)NC(C)C)cc2)CC1 | -22.4% | >57
